MT1-MMP act inh – MT1-MMP (human) activation inhibition; P50281; HT1080 RFP-PRO-GFP cells, GFP/RFP ratio fluorescence, overnight; percent of plate control window, DMSO zero; GFP/RFP ratio change, % at 20 µM; 360,000 compounds, 0.061% hits; AID 651647;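 active = GFP/RFP ratio change of at least 30% with cell ATP level not reduced by more than half and red fluorescence within 50% of control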; note: strong numbers were not always called active
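Read-out: GFP/RFP fluorescence ratio; Test system: RFP-PRO-GFP reporter HT1080 cells; Compound dosing: single-point 20 µM compound, 1% DMSO; Times: overnight compound exposure at 37 °C.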
Env fusion inh – HIV envelope-mediated fusion inhibition; HeLa-JRFL Env/CEM21 cell fusion, luciferase; inhibition, % at 12.3 µM; 360,000 compounds, 1.1% hits;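 active = mean replicate inhibition score of at least 50 and every replicate individually at or above 50; inconclusive = only one of the two criteria met; inactive = mean below 50 and not all replicates reaching 50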;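 note: 0% = plate neutral controls and 100% = maraviroc near 300 nM; one replicate is shown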
CSC inhib – cancer stem cell inhibition. 300,000 compounds, 1.1% hits. inhibition, % at 7.5 µM. cancer stem cell-like cells viability, luminescence;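 active = mean at 75% or more and at least half the replicates too; inconclusive = mean and replicates disagree; tested in HMLE shEcad cells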;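 note: 0% = median of negative and 100% = median of positive control wells; the first replicate is given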
Yeast UUG start – yeast start codon fidelity modulation. S. cerevisiae UUG-firefly luciferase reporter, luminescence/redox ratio. activity score, % at 18.7 µM. 350,000 compounds, 0.13% hits. AID 602363;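 active = replicate mean at a twofold rise or more, about +100% in these data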;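 note: firefly luciferase made from a UUG start codon reports start codon fidelity; reporter light over untreated wells divided by growth signal over untreated wells; some hits fall short of that in this replicate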
Rce1 inh – inhibitors of yeast Ras-converting enzyme; Q03530; yeast membranes, quenched prenylated peptide cleavage fluorescence; calls only; 290,000 compounds, 0.27% hits;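 active = fall in fluorescence gain of 50% or more versus controls, with final raw signal at or below 3038400; inconclusive = same 50% fall but final raw signal above 3038400; inactive = fall in fluorescence gain under 50%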;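 note: plate controls were neutral control wells for no effect and wells lacking membranes for full effect; tested at 10 µM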
Target sequence (Q03530 whole entry, looked up): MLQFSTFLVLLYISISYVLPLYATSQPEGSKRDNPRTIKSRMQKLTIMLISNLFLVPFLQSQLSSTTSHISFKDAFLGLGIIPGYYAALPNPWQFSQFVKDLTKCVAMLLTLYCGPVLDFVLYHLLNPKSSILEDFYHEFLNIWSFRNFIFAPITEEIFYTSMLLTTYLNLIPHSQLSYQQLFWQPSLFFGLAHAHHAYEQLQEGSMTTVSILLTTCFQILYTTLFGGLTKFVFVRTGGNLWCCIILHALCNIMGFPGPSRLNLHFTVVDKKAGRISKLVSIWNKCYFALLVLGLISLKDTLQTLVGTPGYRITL
eIF4H inh – inhibitors of RNA binding by human eIF4H | 290,000 compounds, 0.94% hits | inhibition, % at 35 µM | AID 2012 | Q15056 | eIF4H fluorescence polarization binding assay;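 active = 50% or more with normal probe brightness, or confirmed in later tests; inconclusive = above 50% with abnormal brightness, or retests that disagree; inactive = below 50% or failed in later tests; about a fifth of its hits are not listed in these tables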;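 note: calls also rest on retests at 20 µM and on dose response follow-up; 0% = protein and probe with vehicle and 100% = probe without protein; strong numbers were not always called active; many hits fall short of the cut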
PABP polyA inh – PABP-poly(A) binding inhibition. P11940. PABP-poly(A) RNA binding, fluorescence polarization. inhibition, % at 35 µM. 290,000 compounds, 1% hits. AID 2014;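 active = 50% or more with normal probe brightness, or confirmed in later tests; inconclusive = above 50% with abnormal brightness, or retests that disagree; inactive = below 50% or failed in later tests; about a fifth of its hits are not listed in these tables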;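 note: calls also rest on retests at 20 µM and on dose response follow-up; controls were probe without protein and protein plus probe with vehicle; some compounds called inactive have numbers as strong as hits; many hits fall short of the cut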
MT1-MMP act inh RFP – also measured in MT1-MMP act inh; calls as there; RFP signal change, %; measured here: RFP expression control read;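 0 = vehicle wells; hits needed this value within 50% of zero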
* marks the source's active call; other numbers are inactive results; i = inactive; ? = inconclusive; · = no result given.

1. Cc1ccc(-n2c(=O)c3c4c(sc3n3c(C)nnc23)COC(C(C)C)C4)cc1 (stereo unspecified)
2. CN(C(=O)c1cccc(NC(=O)Cc2ccc([N+](=O)[O-])cc2)c1)C1CCCC1
3. CCN(C(=O)CN1CCN(c2ccc(O)cc2)CC1)c1c(N)n(Cc2ccccc2)c(=O)[nH]c1=O
4. COc1cc([N+](=O)[O-])ccc1NC(=O)COC(=O)C=C(C)C
5. CC(C)(C)C1CCC(OCC(O)CN2CCN(Cc3ccccc3)CC2)CC1 (stereo unspecified)
6. O=C(Nc1nnc(-c2ccncc2)o1)C1CCCCC1

entry no.	1	2	3	4	5	6
eIF4H inh	·	·	5.2	-2.1	1.1	-2.2
MT1-MMP act inh	5.4	-1.3	-5.6	5.2	0.4	1.7
CSC inhib	-8.1	3.4	5.0	·	64.4	-4.0
Yeast UUG start	-16.4	2.8	·	-7.7	·	·
MT1-MMP act inh RFP	3.9	-26.0	4.2	1.9	-2.9	0.3
PABP polyA inh	·	·	4.6	-0.5	8.6	-4.5
Env fusion inh	·	10.4	-23.7	1.5	27.6	-6.1
Rce1 inh	i	·	i	i	i	i

7. CCN(CC(=O)NCc1cccs1)C(=O)Cc1ccc(C)c(C)c1
8. Cc1oc(-c2ccc(Cl)cc2)nc1CN1CCC(C(=O)NCCCN2CCOCC2)CC1
9. CCN(CC)CCn1c2c(c(SCC(=O)Nc3ccc(C(C)C)cc3)nc1=O)CCC2
10. Cc1ccc(S(=O)(=O)N2CCC(=O)N(C(COCc3ccccc3)C(C)C)CC2)cc1 (stereo unspecified)
11. Cc1ccc2nc(-c3ccc(N4C(=O)CC(N5CCN(CCO)CC5)C4=O)cc3)sc2c1 (stereo unspecified)
12. Cc1cc(C)cc(NC(=O)CCC(=O)N2CCSc3ccccc32)c1

entry no.	7	8	9	10	11	12
eIF4H inh	·	7.1	·	-0.4	10.6	-5.7
MT1-MMP act inh	6.0	4.8	4.5	-0.9	11.8	4.0
CSC inhib	22.1	7.5	11.3	0.3	6.4	·
Yeast UUG start	-8.4	-4.0	-2.6	13.5	·	-20.8
MT1-MMP act inh RFP	-2.0	-3.4	3.2	-4.4	1.9	-0.7
PABP polyA inh	·	16.7	·	2.5	9.4	-3.1
Env fusion inh	7.2	8.4	9.3	19.7	-22.7	-21.0
Rce1 inh	·	i	i	i	i	i

Structural class, those above with a thiophene ring, fused or not.
1. Cc1ccc(-n2c(=O)c3c4c(sc3n3c(C)nnc23)COC(C(C)C)C4)cc1 (stereo unspecified)
7. CCN(CC(=O)NCc1cccs1)C(=O)Cc1ccc(C)c(C)c1

entry no.	1	7
eIF4H inh	·	·
MT1-MMP act inh	5.4	6.0
CSC inhib	-8.1	22.1
Yeast UUG start	-16.4	-8.4
MT1-MMP act inh RFP	3.9	-2.0
PABP polyA inh	·	·
Env fusion inh	·	7.2
Rce1 inh	i	·

Continued.
13. O=C(CCS(=O)(=O)c1ccccc1)N1CCN(c2ccccc2F)CC1
14. O=C(CNC(=O)c1ccco1)NNC(=O)c1n[nH]c(=O)c2ccccc12
15. CCOc1ccccc1C(=O)NCC(=O)NNC(=O)c1csc(N2CCOCC2)n1
16. CO/N=C(/CS(=O)c1ccc(Br)cc1)c1ccc(OC)cc1 (stereo unspecified)
17. CCCCn1c2c(c(=N)c3ccccc31)CCC2
18. CCCCCCCC(=O)NNC(=O)Cc1ccccc1

entry no.	13	14	15	16	17	18
eIF4H inh	-0.6	·	·	-10.5	·	-7.5
MT1-MMP act inh	-2.2	-1.3	-0.6	-0.7	1.2	7.3
CSC inhib	11.3	-7.5	·	-7.1	3.5	-10.9
Yeast UUG start	-30.8	-14.5	-13.7	-13.7	-17.5	-5.4
MT1-MMP act inh RFP	-0.7	4.2	1.0	3.9	-14.9	7.5
PABP polyA inh	0.2	·	·	-7.0	·	4.6
Env fusion inh	-79.4	9.3	-17.6	·	1.2	·
Rce1 inh	i	·	·	i	i	i

Looked up above:
compound 13 in Yeast UUG start reads -30.8
compound 17 in MT1-MMP act inh reads 1.2
compound 15 in MT1-MMP act inh reads -0.6
compound 14 in Env fusion inh reads 9.3

The list goes on.
19. COc1ccccc1N1CCN(CC(=O)c2c(C)n(C)c3ccccc23)CC1
20. CC(C)C[C@H]1CNC(=O)C(=O)N1CC1CCN(CCc2ccccc2)CC1
21. O=C(NNC(=O)c1cc(-c2ccncc2)nc2ccccc12)c1ccccc1O
22. CCN(C(=O)C(C)Sc1nnc(-c2ccncc2)n1C)C1CCCCC1 (stereo unspecified)
23. CCCCOc1ccccc1/C=N/NC(=O)CC#N
24. Cc1cc(Cl)ccc1NNC(=O)c1c(C)noc1C

entry no.	19	20	21	22	23	24
eIF4H inh	-0.7	·	·	·	-0.2	-14.8
MT1-MMP act inh	0.9	3.3	2.8	-0.6	1.5	2.4
CSC inhib	7.2	·	40.1	-17.8	-1.9	?
Yeast UUG start	-6.0	-5.6	-9.6	-13.3	·	·
MT1-MMP act inh RFP	2.3	7.6	0.1	-5.1	1.8	4.0
PABP polyA inh	6.4	·	·	·	-5.2	-2.3
Env fusion inh	-40.0	8.2	-14.7	14.1	10.5	-21.8
Rce1 inh	i	·	i	·	i	i

Part of the list above in order of length of the SMILES, smallest number first:
24. Cc1cc(Cl)ccc1NNC(=O)c1c(C)noc1C
4. COc1cc([N+](=O)[O-])ccc1NC(=O)COC(=O)C=C(C)C
19. COc1ccccc1N1CCN(CC(=O)c2c(C)n(C)c3ccccc23)CC1

entry no.	24	4	19
eIF4H inh	-14.8	-2.1	-0.7
MT1-MMP act inh	2.4	5.2	0.9
CSC inhib	?	·	7.2
Yeast UUG start	·	-7.7	-6.0
MT1-MMP act inh RFP	4.0	1.9	2.3
PABP polyA inh	-2.3	-0.5	6.4
Env fusion inh	-21.8	1.5	-40.0
Rce1 inh	i	i	i

Further compounds follow.
25. COC(=O)Cc1cc(=O)n(-c2nc3ccccc3[nH]2)[nH]1
26. COc1ccc(COC(=O)CCN=C2NS(=O)(=O)c3ccccc32)cc1F
27. COC(=O)COc1ccc(-c2nn(C)c(=O)c3ccccc23)cc1
28. CC(=O)C1C(c2ccccc2OC(F)F)NC(=O)NC1(O)C(F)(F)F (stereo unspecified)
29. O=C(COc1ccc2c(-c3ccccc3)cc(=O)oc2c1)N[C@H](Cc1c[nH]c2ccccc12)C(=O)O
30. COc1ccc(C2C(C(=O)c3ccco3)=C(O)C(=O)N2CC2CCCO2)cc1OC (stereo unspecified)

entry no.	25	26	27	28	29	30
eIF4H inh	29.9	·	-1.2	-2.9	7.5	2.5
MT1-MMP act inh	4.7	-3.2	3.0	-5.1	8.2	-0.1
CSC inhib	·	-2.4	-10.9	-5.4	-7.8	3.0
Yeast UUG start	·	·	-7.6	·	19.2	0.5
MT1-MMP act inh RFP	5.9	-3.6	2.9	3.9	4.2	2.9
PABP polyA inh	-8.1	·	2.5	-5.4	16.6	0.1
Env fusion inh	·	-19.8	-7.6	·	·	6.0
Rce1 inh	i	i	i	i	i	i

Of the compounds above, these contain a Cl atom.
8. Cc1oc(-c2ccc(Cl)cc2)nc1CN1CCC(C(=O)NCCCN2CCOCC2)CC1
24. Cc1cc(Cl)ccc1NNC(=O)c1c(C)noc1C

entry no.	8	24
eIF4H inh	7.1	-14.8
MT1-MMP act inh	4.8	2.4
CSC inhib	7.5	?
Yeast UUG start	-4.0	·
MT1-MMP act inh RFP	-3.4	4.0
PABP polyA inh	16.7	-2.3
Env fusion inh	8.4	-21.8
Rce1 inh	i	i

(cont.)
31. CCSc1nc2c(c(=O)[nH]1)C(c1cccs1)C(C(=O)OC)=C(C)N2 (stereo unspecified)
32. N/C(=N\OC(=O)c1cc(Br)ccc1Cl)c1ccccn1
33. COc1cccc(OC)c1C(=O)Nc1cc2c(cc1N1CCOCC1)n(C)c(=O)n2C
34. O=S(=O)(Nc1cccnc1)c1ccc(F)cc1
35. O=S(=O)(Nc1ccccn1)c1ccc(-n2cccn2)cc1

entry no.	31	32	33	34	35
eIF4H inh	-10.8	-3.5	-11.3	-3.4	-5.0
MT1-MMP act inh	2.6	1.6	1.7	-4.4	-0.9
CSC inhib	-6.4	-6.7	-11.9	-1.8	-4.2
Yeast UUG start	-19.0	·	7.7	-16.8	-9.9
MT1-MMP act inh RFP	1.2	6.3	5.0	-4.9	3.3
PABP polyA inh	19.7	-11.8	-2.0	-11.6	1.5
Env fusion inh	-5.0	-42.3	-33.1	-10.0	0.2
Rce1 inh	i	i	i	i	i

Source: PubChem BioAssay

An excerpt, so the mix of outcomes need not match the whole.
